TAR Tat displ: HIV-1 TAR-Tat binding disruption | HIV-1 TAR RNA, Tat peptide displacement FRET; active compounds read high | z-score (concentration not given with the values) | hit rate 0.6% among 100,000 | AID 1259389;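 further: score is relative to mean and SD of negative controls; some compounds called inactive have numbers as strong as hits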
CDC25B CDK2 inh: human CDC25B-CDK2/CyclinA binding inhibition. P30305+P24941. HTRF CDC25B-CDK2/CyclinA binding, anti-His/anti-Flag; active compounds read high. z-score (test concentration not listed). hit rate 0.72% among 94,000. AID 1259370;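 further: score is relative to mean and SD of negative controls; strong numbers were not always called active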
Active calls of the source: *; x = not tested or not shown.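 How the source made its calls: active means z-score from 3 up in half or more of its runs; inactive means the rest.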

SMILES | TAR Tat displ | CDC25B CDK2 inh
CC1=C(C(=O)OCCc2ccccc2)C(c2ccccc2Br)C2=C(CCCC2=O)N1 (configuration not stated) | 1.88 | -1.19
Cc1ccc(S(=O)(=O)Nc2cc(C)ccc2C)cc1 | 2.98 | -2.79
O=c1c(/C=N/NC(=S)NCc2ccco2)coc2ccccc12 | x | -2.64
CCOc1ccc(C(=O)OCc2cc(=O)n3nc(CCOC)sc3n2)cc1 | 0.97 | x
OC(CN1CCOCC1)c1ccc2cc[nH]c2c1 (configuration not stated) | 2.28 | -1.83
CC1CCCN(CCCNC(=O)CCCN2C(=O)CCn3nc(-c4cccn4C)cc32)C1 (configuration not stated) | -9.62 | x
COCc1cc(C)nc2sc3c(c12)NC(c1ccco1)N(C1CCCCC1)C3=O (configuration not stated) | -3.41 | 1.67
Cn1c(=O)c2c(nc(N3CCCCCC3)n2CCSc2ncccn2)n(C)c1=O | x | 0.07
CC(NC(=O)C(CSCc1ccccc1)N1Cc2ccccc2C1=O)c1ccc2c(c1)OCCO2 (configuration not stated) | 0.01 | -1.06
CC(=O)N1CCOc2ccc(S(=O)(=O)NCc3cccs3)cc21 | 1.49 | -0.38
CCOC(=O)c1c(C)[nH]c(C)c1S(=O)(=O)NCC(=O)NC1CCCC1 | 1.36 | x
CC(C)C12CN3CC(C(C)C)(CN(C1)C3c1ccc(N(C)C)cc1)C2=O (configuration not stated) | 1.15 | -1.86
COc1cc(OC)c(NC(=O)Cn2cc3c(n2)CCCC3)cc1Cl | x | -3.33
CSC1=C(C#N)C(=O)NC2(CCCCC2)S1 | x | -1.5
CCC(C(=O)N1CCC(N2CCCCC2)CC1)n1nc(C)n2c(cc3occc32)c1=O (configuration not stated) | 1.24 | -0.28
OCCNc1nc(-c2ccccc2Cl)nc2ccccc12 | x | -2.54
CCc1nc2sc3c(N4CCCC4)ncnc3c2c2c1COC(C)(C)C2 | x | 8.06
CCN(CC)C(=O)c1cc(S(=O)(=O)N2CCCCC2)c[nH]1 | 2.46 | x
O=C(NCc1noc2ccccc12)Nc1ccc(Cl)cc1 | -0.11 | x
CCSc1nnc(NC(=O)c2ccc3c(c2)CC(c2ccccc2)OC3=O)s1 (configuration not stated) | 2.04 | -1.85
C=CCN1C=C(OC(=O)c2ccccc2)c2ccccc2S1(=O)=O | 1.61 | 0.49
CCc1ccc(OCCn2c(C3CCCO3)nc3ccccc32)cc1 (configuration not stated) | 0.26 | -1.48
O=C(NCCCN1CCCC1)c1ccc2c(Cl)c3c(nc2c1)CCC3 | x | -1.8
CC(C)N1C(=O)C(O)(CC(=O)c2cccs2)c2ccccc21 (configuration not stated) | 0.63 | -0.86
NC(=O)c1ccc[n+]([C@@H]2O[C@H](COP(=O)([O-])OP(=O)(O)OC[C@H]3O[C@@H](n4cnc5c(N)ncnc54)[C@H](OP(=O)(O)O)[C@@H]3O)[C@@H](O)[C@H]2O)c1 | 1.54 | x
CCn1c(C)[n+](CC(O)COc2cccc(OC)c2)c2ccccc21 (configuration not stated) | 1.22 | 0.41
COC(=O)C(CO)Nc1ncnc2onc(-c3ccc(F)cc3)c12 (configuration not stated) | 1.33 | -0.46
O=C(CSC1=NCCc2ccccc21)c1ccc(Cl)cc1 | x | 0.73
CCCN1C(=O)N(c2cc(C)ccc2C)C2CS(=O)(=O)CC21 (configuration not stated) | 1.24 | x
CC(=O)n1nc(-c2ccc(C)c(C)c2)nc1N | -0.16 | -0.22
CCC(C)NC(=O)c1ccc(NC(=O)C2=C(C)OCCS2)cc1 (configuration not stated) | 1.35 | x
O=C(NCCN1CCOCC1)c1cc2c(s1)-c1ccccc1OC2 | x | -0.37
O=C(NC1CCCCC1)c1cnn2c(C(F)(F)F)cc(-c3cccs3)nc12 | 0.68 | x
CS(=O)(=O)Nc1nc2ccc(NC(=O)CC3CCCC3)cc2s1 | -0.92 | x
Cn1cnc2c(NCc3ccco3)ncnc21 | -0.52 | -0.65
Nc1nc2c(c(=O)[nH]1)C(c1ccc(OCc3ccccc3F)cc1)CC(=O)N2 (configuration not stated) | -0.12 | 0.75
Cc1[nH]cnc1CN1CCc2c(c3ccccc3n2C)C1=O | -1.46 | x
CCOc1ccc(/C=C/c2nc(C#N)c(NCc3cccnc3)o2)cc1 | -0.06 | 0.05
CC(=O)Nc1nc(C)c(-c2csc(NCc3ccccc3)n2)s1 | x | 6.84*
COc1ccc(Cl)cc1S(=O)(=O)Nc1ccc2[nH]c(=O)[nH]c2c1 | 0.05 | -2.07
O=C1COc2ccc(Cl)cc2N1 | x | -1.3
O=c1oc(-c2ccco2)cc(-c2ccccc2)c1-c1ccccc1 | -5.04 | 0.51
COCCOC(=O)C1=C(C)NC2=C(C(=O)CC(c3ccc(OC)cc3)C2)C1c1ccc2c(c1)OCO2 (configuration not stated) | 2.05 | -1.9
Brc1ccc(CSc2nnc([C@@H]3CCCN3)o2)cc1 | 0.21 | -0.3
Cn1c(=O)oc2cc(S(=O)(=O)N3CCCC(C(=O)NCC4CCCO4)C3)ccc21 (configuration not stated) | 1.34 | 0.57
Cc1cc(NC(=O)C2CCCN(c3nnc(-n4cccc4)s3)C2)no1 (configuration not stated) | 2.05 | x
CCCCN1C(=O)c2cc(C(=O)NC3CCCCC3)nn2CC1(C)C(=O)NC1CCCC1 (configuration not stated) | 0.37 | x
CCc1nc(-c2csc(S(=O)(=O)N3CCN(c4ccccc4F)CC3)c2)no1 | -0.87 | x
COc1ccc(Nc2ncnc3c2cnn3-c2cccc(Cl)c2)cc1OC | 1.49 | x
Cc1[nH]c2ccccc2c1C1=CCN(S(=O)(=O)c2ccc(C(C)(C)C)cc2)CC1 | 1.3 | 0.23
Cc1cc(C)cc(NC2c3ncccc3C(=O)N2Cc2cccs2)c1 (configuration not stated) | -1.09 | -0.98
CC(=O)Oc1ccc2ccccc2c1C1=NN(C(C)=O)C(c2ccc(Cl)cc2)O1 (configuration not stated) | 0.74 | x
CCOc1cccc2c1OCC(NS(=O)(=O)c1cc(Br)cc3c1N(C(C)=O)CC3)C2 (configuration not stated) | 0.97 | x
Cc1nc2ccc(Br)cc2c(=O)n1-c1ccccc1N1CCCCC1 | x | -1.76
CCn1cc(S(=O)(=O)c2cc(C)ccc2C)c(=O)c2cc(F)c(N3CCCC3)cc21 | 0.67 | x
CCCC(=O)NCCc1cc2cc(C)c(C)cc2[nH]c1=O | x | -2.05
Cc1[nH]c2ccccc2c1C(=O)C(=O)N(C)C1CCCCC1 | x | -4.83
Cc1cc(S(=O)(=O)n2nc(-c3ccccc3)cc2N)ccc1F | -0.15 | -1.16
Cc1cccc(-n2nnc(-c3nc(-c4ccc(F)cc4)no3)c2N)c1 | 1.38 | x
CCc1nc2nc(CSc3ccc(C)cc3)cc(=O)n2[nH]1 | -0.17 | -1.22

(continued)
SMILES | TAR Tat displ | CDC25B CDK2 inh
O=C(c1ccco1)N1CCN(C(=O)C2CCCN(c3nc4ncccc4n4cccc34)C2)CC1 (configuration not stated) | -1.23 | x
CC1CCN(C(=O)CCCNC(=O)Cn2cnc3sc4c(c3c2=O)CCCC4)CC1 | x | -1.16
C=CCSc1nc2c(c(=O)[nH]1)C(c1cccs1)C(C(=O)OCC)=C(C)N2 (configuration not stated) | 1.12 | -0.47
CCSc1ccc(-c2noc(C(C)(C)C)n2)cn1 | x | -1
CNC(=O)c1ccccc1NC(=O)c1c(O)c2cccc3c2n(c1=O)CC3 | 1.92 | x
CNc1nc(NCc2ccccc2C)c2cnn(C)c2n1 | 0.91 | x
CCOC(=O)c1c(NC(=O)C(C)(C)C)sc2c1CCC2 | 1.13 | -2.46
Nc1c(-c2nc(-c3ccc(Cl)cc3)no2)nnn1-c1cccc(Cl)c1 | -0.22 | x
COc1cc(C2c3c(-c4ccccc4O)n[nH]c3C(=O)N2Cc2ccco2)ccc1O (configuration not stated) | 2.21 | -0.85
O=C(NCc1ccccc1)c1sc2sccc2c1Cl | x | -0.28
COc1ccc2cc3c(N)nn(C(=O)c4cc(-c5cccs5)nc5ccccc45)c3nc2c1 | 1.31 | -0.46
CCCc1nn2c(=O)c(NC(=O)c3ccc(C(C)(C)C)cc3)cnc2s1 | 0.58 | -1.42
COc1ccc(S(=O)(=O)N2CCSC2c2ccc(Br)cc2)cc1 (configuration not stated) | x | -0.55
Cc1[nH]nc(N)c1-c1ccccc1 | x | -1.11
Cc1ccc(NC(=O)c2c(NC(=O)c3cccs3)sc3c2CCC3)cc1 | x | -1.57
COCCNC(=O)C1CCCN(c2nnc(-n3cccc3)s2)C1 (configuration not stated) | 1.61 | -1.39
Cc1ccc(C2Oc3ccccc3C3=C2C(c2cccs2)n2ncnc2N3)cc1 (configuration not stated) | x | -2.41
COc1ccc(-c2nc3n(n2)C(=O)CC(c2cccc4ccccc24)S3)cc1 (configuration not stated) | 0.72 | -0.38
Cc1nc(-c2csc(S(=O)(=O)Nc3ccc(Br)cc3F)c2)no1 | -0.84 | x
O=c1c2ccccc2nnn1CSc1ccc2ccccc2n1 | x | -0.03
Cc1noc(-c2ccc(-c3noc(-c4ccco4)n3)cc2)n1 | 1.21 | x
CCCN1CCN(S(=O)(=O)c2ccc3c(c2)C(C)(C)C(=O)N3C)CC1 | 1.72 | x
C=CCn1c(=O)c(C(=O)Nc2nc3ccc(F)cc3s2)c(O)c2ccccc21 | 3.21 | x
Cn1c(=O)c(N2CCCCC2)c2c3c(cccc31)C(=O)c1ccccc1-2 | -10.2 | -2.16
CC(=O)N1c2ccc(S(=O)(=O)N3CCCC3C(=O)Nc3cccc(F)c3)cc2CC1C (configuration not stated) | 1.76 | x
COc1cc(Br)ccc1C1C(C(=O)OC2CCCCC2)=C(C)Nc2ncnn21 (configuration not stated) | 0.99 | 0.34
CCOC(=O)N1CCN(c2c(-c3ccc(C)c(C)c3)c(=O)c2=O)CC1 | 1.47 | x
Cc1cc2nc(COC(=O)C(C)C)cc(=O)n2o1 | 0.21 | x
Cc1nn(-c2ccc(Br)cc2)c2c1C(=O)CC(C)(C)C2 | x | -1.13
CCCN1CCN(C(=O)C2CCCN(S(=O)(=O)c3ccc4c(c3)oc(=O)n4C)C2)CC1 (configuration not stated) | 1.27 | -0.63
O=C(c1cnn(-c2cccc(F)c2)c1-n1cccc1)N1CCN(c2ccc(F)cc2)CC1 | 1.7 | x
CCC(C)NC(=O)N1CCC2(CC1)Nc1cc(F)ccc1-n1cccc12 (configuration not stated) | -0.29 | x
Cc1ccnc(SCC(=O)N2CCN(c3ccc(=O)n(-c4ccccc4)n3)CC2)n1 | 0.97 | x
O=C(NCCN1CCOCC1)c1nnc(CS(=O)(=O)c2ccccc2)o1 | -1.47 | -1.86
COc1ccc(C2=CC(c3ccccc3Cl)n3ncnc3N2)cc1 (configuration not stated) | -2.82 | x
Cc1nc2sc(C(c3ccc(Cl)cc3)N3CCC(O)CC3)c(O)n2n1 (configuration not stated) | x | -0.8
Clc1ccc(-n2ncc3c(NC4CCCC4)ncnc32)cc1 | -0.18 | x
CC(C)CNc1ncnc2c1cnn2-c1ccc(Cl)cc1 | 3.02 | x
Cc1ccc2oc3c(c(=O)c2c1)C1(C(=O)N(C)c2ccccc21)N(CCCO)C3=O (configuration not stated) | 3.49 | -1.59
COc1ccc(-c2noc(CSc3nnc(C)n3-c3cccc(C)c3)n2)cc1OC | 2.57 | -1.47
O=C(O)CCSc1nc2ccccc2n1C1CCCCC1 | 0.3 | -2.19
CCCCNc1nc(Oc2ccc(OCC)nn2)nc(N(C)C)n1 | 3.67 | -1.49
CC(=O)c1c(C(=O)O)c(C)n(C2CC2)c1C | x | -1.75
CCN1CCN(C(=O)C2=CC(c3ccco3)=NS(=O)(=O)N2C)CC1 | 1.96 | -1.23
CSc1nn2c(=O)c(C)nnc2s1 | 1.66 | x
Cc1ccc2oc(-c3cc(NC(=O)c4cc(I)ccc4Cl)ccc3O)nc2c1 | x | -16
CCN(C1CCCCC1)S(=O)(=O)c1ccc(S(=O)(=O)N2CCN(c3ncccn3)CC2)cc1 | 0.74 | 0.83
CN(Cc1ccccc1)S(=O)(=O)c1cc(-c2noc(C3CC3)n2)cs1 | 0.44 | x

In the list so far, 12 contain fluorine:
SMILES | TAR Tat displ | CDC25B CDK2 inh
COC(=O)C(CO)Nc1ncnc2onc(-c3ccc(F)cc3)c12 (configuration not stated) | 1.33 | -0.46
O=C(NC1CCCCC1)c1cnn2c(C(F)(F)F)cc(-c3cccs3)nc12 | 0.68 | x
Nc1nc2c(c(=O)[nH]1)C(c1ccc(OCc3ccccc3F)cc1)CC(=O)N2 (configuration not stated) | -0.12 | 0.75
CCc1nc(-c2csc(S(=O)(=O)N3CCN(c4ccccc4F)CC3)c2)no1 | -0.87 | x
CCn1cc(S(=O)(=O)c2cc(C)ccc2C)c(=O)c2cc(F)c(N3CCCC3)cc21 | 0.67 | x
Cc1cc(S(=O)(=O)n2nc(-c3ccccc3)cc2N)ccc1F | -0.15 | -1.16
Cc1cccc(-n2nnc(-c3nc(-c4ccc(F)cc4)no3)c2N)c1 | 1.38 | x
Cc1nc(-c2csc(S(=O)(=O)Nc3ccc(Br)cc3F)c2)no1 | -0.84 | x
C=CCn1c(=O)c(C(=O)Nc2nc3ccc(F)cc3s2)c(O)c2ccccc21 | 3.21 | x
CC(=O)N1c2ccc(S(=O)(=O)N3CCCC3C(=O)Nc3cccc(F)c3)cc2CC1C (configuration not stated) | 1.76 | x
O=C(c1cnn(-c2cccc(F)c2)c1-n1cccc1)N1CCN(c2ccc(F)cc2)CC1 | 1.7 | x
CCC(C)NC(=O)N1CCC2(CC1)Nc1cc(F)ccc1-n1cccc12 (configuration not stated) | -0.29 | x
